PABP polyA inh: blocks human PABP binding to poly(A) RNA; fluorescence polarization; inhibition, % at 35 µM; hit rate 1% among 290,000; AID 2014;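 active = 50% or more with normal probe brightness, or confirmed in later tests; inconclusive = above 50% with abnormal brightness, or retests that disagree; inactive = below 50% or failed in later tests; about a fifth of its hits are not listed in these tables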;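 note: calls also rest on retests at 20 µM and on dose response follow-up; controls were probe without protein and protein plus probe with vehicle; some compounds called inactive have numbers as strong as hits; many hits fall short of the cut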
Target sequence (P11940 whole entry, looked up): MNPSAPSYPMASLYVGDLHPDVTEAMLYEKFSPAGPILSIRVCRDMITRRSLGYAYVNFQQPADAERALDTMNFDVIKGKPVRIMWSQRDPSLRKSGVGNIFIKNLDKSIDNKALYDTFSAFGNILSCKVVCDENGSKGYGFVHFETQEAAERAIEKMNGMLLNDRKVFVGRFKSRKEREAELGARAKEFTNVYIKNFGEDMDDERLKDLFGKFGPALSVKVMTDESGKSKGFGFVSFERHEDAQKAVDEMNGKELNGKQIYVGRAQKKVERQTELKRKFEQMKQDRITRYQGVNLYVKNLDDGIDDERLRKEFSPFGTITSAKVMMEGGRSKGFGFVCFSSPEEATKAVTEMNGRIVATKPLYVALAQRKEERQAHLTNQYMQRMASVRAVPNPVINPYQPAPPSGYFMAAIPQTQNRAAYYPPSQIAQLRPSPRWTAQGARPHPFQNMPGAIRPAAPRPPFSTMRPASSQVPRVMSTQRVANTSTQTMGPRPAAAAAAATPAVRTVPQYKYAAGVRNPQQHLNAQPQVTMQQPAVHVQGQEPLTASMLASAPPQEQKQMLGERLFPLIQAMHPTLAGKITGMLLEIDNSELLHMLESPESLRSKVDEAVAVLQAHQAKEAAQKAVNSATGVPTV
UUG fidelity: modulators of start codon recognition fidelity in yeast. S. cerevisiae UUG-firefly luciferase reporter, luminescence/redox ratio. activity score, % at 18.7 µM. hit rate 0.13% among 350,000. AID 602363;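 active = replicate mean at a twofold rise or more, about +100% in these data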;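 note: firefly luciferase made from a UUG start codon reports start codon fidelity; reporter light over untreated wells divided by growth signal over untreated wells; some hits fall short of that in this replicate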
MT1-MMP act inh: inhibitors of human MT1-MMP activation; P50281; HT1080 RFP-PRO-GFP cells, GFP/RFP ratio fluorescence, overnight; percent of plate control window, DMSO zero; GFP/RFP ratio change, % at 20 µM; hit rate 0.061% among 360,000; AID 651647;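 active = GFP/RFP ratio change of at least 30% with cell ATP level not reduced by more than half and red fluorescence within 50% of control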; note: strong numbers were not always called active
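Test system: HT1080 RFP-PRO-GFP cells; Benchmarks: DMSO and RFP-L50D-GFP cell wells; Timing: cells overnight before dosing, compound overnight, 37 °C, 5% CO2; Compound: one 20 µM compound dose with 1% DMSO; Read-out: GFP/RFP fluorescence ratio.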
Env fusion inh: blocks HIV Env-driven cell-cell fusion; HeLa-JRFL Env/CEM21 cell fusion, luciferase; inhibition, % at 12.3 µM; hit rate 1.1% among 360,000;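 active = mean replicate inhibition score of at least 50 and every replicate individually at or above 50; inconclusive = only one of the two criteria met; inactive = mean below 50 and not all replicates reaching 50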;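 note: 0% = plate neutral controls and 100% = maraviroc near 300 nM; one replicate is shown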
Rce1 inhib: inhibitors of yeast Ras-converting enzyme; Q03530; calls only; hit rate 0.27% among 290,000; AID 2563; yeast membranes, quenched prenylated peptide cleavage fluorescence;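 active = fall in fluorescence gain of 50% or more versus controls, with final raw signal at or below 3038400; inconclusive = same 50% fall but final raw signal above 3038400; inactive = fall in fluorescence gain under 50%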;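 note: plate controls were neutral control wells for no effect and wells lacking membranes for full effect; tested at 10 µM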
Target sequence (Q03530 whole entry, looked up): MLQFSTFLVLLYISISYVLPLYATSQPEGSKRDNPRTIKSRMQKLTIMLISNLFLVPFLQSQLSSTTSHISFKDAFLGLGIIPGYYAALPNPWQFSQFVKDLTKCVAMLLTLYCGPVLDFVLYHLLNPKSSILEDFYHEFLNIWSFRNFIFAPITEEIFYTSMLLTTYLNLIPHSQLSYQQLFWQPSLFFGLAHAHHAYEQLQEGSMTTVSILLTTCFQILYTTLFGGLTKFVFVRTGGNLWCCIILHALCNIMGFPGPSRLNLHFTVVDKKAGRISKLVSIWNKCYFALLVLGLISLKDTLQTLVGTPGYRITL
CSC inhib: cancer stem cell inhibition; AID 2717; inhibition, % at 7.5 µM; cancer stem cell-like cells viability, luminescence; hit rate 1.1% among 300,000;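 active = mean at 75% or more and at least half the replicates too; inconclusive = mean and replicates disagree; tested in HMLE shEcad cells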;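 note: 0% = median of negative and 100% = median of positive control wells; the first replicate is given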
eIF4H inh: inhibitors of RNA binding by human eIF4H. inhibition, % at 35 µM. eIF4H fluorescence polarization binding assay. hit rate 0.94% among 290,000. AID 2012;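 active = 50% or more with normal probe brightness, or confirmed in later tests; inconclusive = above 50% with abnormal brightness, or retests that disagree; inactive = below 50% or failed in later tests; about a fifth of its hits are not listed in these tables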;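 note: calls also rest on retests at 20 µM and on dose response follow-up; 0% = protein and probe with vehicle and 100% = probe without protein; strong numbers were not always called active; many hits fall short of the cut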
eIF4H inh retest: further read-out of eIF4H inh, marked with its call; inhibition, %; compound at 20 µM; confirmation average;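 mean of two retest wells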
PABP polyA inh retest: also measured in PABP polyA inh; calls as there; inhibition, %; compound at 20 µM; confirmation repeats;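 mean of two retest wells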
MT1-MMP act inh RFP: further read-out of MT1-MMP act inh, marked with its call; RFP signal change, %; measured here: RFP expression control read;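 0 = vehicle wells; hits needed this value within 50% of zero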
An asterisk follows results filed as active; i = inactive; ? = inconclusive; / = not tested or not shown.

SMILES	PABP polyA inh	UUG fidelity	MT1-MMP act inh	MT1-MMP act inh RFP	Env fusion inh	Rce1 inhib	CSC inhib	eIF4H inh	others
CC1CCCC(NC(=O)C2CCN(S(=O)(=O)N3CCCCC3)CC2)C1C (stereo unspecified)	5	/	2	5	3	i	-10	0
Cc1ccnc(SCc2cc(=O)c(OC(=O)c3cccs3)co2)n1	1	3	7	8	-216	i	-6	-4
CCOc1ccccc1NC(=O)COC(=O)Cc1cccs1	-2	-17	0	2	/	i	0	2
Cc1ccc(C(CC(=O)NCCCN(C)C)c2ccc(OC(C)C)cc2)cc1 (stereo unspecified)	0	-10	-6	-3	3	i	-3	-10
CCNC(=S)N1CCN(c2ccccn2)CC1	1	/	4	1	18	i	/	-2
Cc1cc(NS(=O)(=O)c2ccc(NC(=O)NC3CCCCC3)cc2)no1	1	-17	9	3	-41	i	-10	-2
CC1CN(C(=O)COc2ccc3ccccc3c2Br)CC(C)O1 (stereo unspecified)	10	2	4	-7	10	i	-2	0
O=C(Nc1ccc(F)cc1)C1CCCCC1	0	1	0	5	/	i	2	-11
CC1(C(=O)NS(=O)(=O)Cc2cccc(Cl)c2)CCN1C(=O)c1cccc(F)c1 (stereo unspecified)	/	20	0	3	-5	/	/	/
COc1ccc(OC)c(NC(=O)COC(=O)Cc2ccsc2)c1	/	-19	1	5	-13	/	-8	/
CCCNC(=S)Nc1cccc(C(F)(F)F)c1	-7	/	-1	-2	-4	i	31	1
CCOC(=O)C1Nc2ccccc2C2C(O)C(O)CC12 (stereo unspecified)	/	-12	46*	43*	-3	i	10	/
CS(=O)(=O)c1ccc(Cl)c(NC(=O)c2ccc(-n3cncn3)c([N+](=O)[O-])c2)c1	/	-19	0	4	-9	/	/	/
CC(C)OCc1c(C(=O)Nc2nccs2)oc2ccccc12	9	-13	1	0	6	i	17	-1
COc1ccccc1NC(=O)c1ccc(N)cc1	2	-6	5	1	/	i	-6	4
COc1ccccc1NC(=O)N1CCCC1C(=O)NCc1ccc2c(c1)OCO2 (stereo unspecified)	2	-8	4	3	/	i	-7	8
Cc1ccc(N2C(=O)CC(c3c[nH]c4ccccc34)C2=O)cc1 (stereo unspecified)	3	/	-1	-2	-33	i	-2	16
Cc1ccc(S(=O)(=O)NCC(C)n2cncn2)cc1C (stereo unspecified)	-3	-7	3	3	24	i	0	-6
O=C(Nc1ccc(S(=O)(=O)Nc2ncccn2)cc1)C12CC3CC(CC(C3)C1)C2	0	-7	3	3	-20	i	-1	-6
CCCCn1c(N)c(N(CCOC)C(=O)CN(C)S(=O)(=O)c2ccc(C)cc2)c(=O)[nH]c1=O	/	/	4	1	-10	i	-9	/
COc1ccc(-c2noc(N3CCC(C(=O)NCc4ccc(Cl)cc4)CC3)n2)cc1	-3	-14	-1	-11	-4	i	9	-13
O=C(CN1C(=O)C2CCCCC2C1=O)Nc1cc(C(F)(F)F)ccc1N1CCCC1 (stereo unspecified)	/	0	-6	2	-17	i	-3	/
Cc1ccc(S(=O)(=O)N2CCCCC2)cc1NC(=O)c1ccc2c(c1)OCO2	27	/	3	0	0	i	-13	4
O=C(c1ccc(S(=O)(=O)NCC2CCCO2)cc1)N1CCN(c2cccc(Cl)c2)CC1 (stereo unspecified)	-2	/	9	-17	13	i	/	2
COc1ccc(CCc2nnc(CCC(=O)NCc3cnc4ccccn34)o2)cc1	2	/	4	0	?	i	4	-1
CC(=O)NC1C2CN3CCN(C2)CC1(Cc1ccccc1)C3 (stereo unspecified)	3	-23	-6	1	-4	i	6	2
N#Cc1c(NC(=O)CSc2nnc(-c3ccncc3)n2CC2CCCO2)sc2c1CCCC2 (stereo unspecified)	6	-16	2	-4	39	i	0	3
CC(C)=CC(=O)OCC(=O)Nc1cc(C)ccc1C	-6	/	2	2	2	i	-9	-1
O=C1CCC(C(=O)N2CCCO2)CN1Cc1cccc(C(F)(F)F)c1 (stereo unspecified)	1	0	-3	-2	-6	i	/	-2
COc1cc(-c2nc3ccccn3c2/N=C/c2cc(OC)c(O)cc2Cl)ccc1O	0	/	4	5	-10	i	0	68	eIF4H inh retest=-4;PABP polyA inh retest=12
NC(=O)c1ccsc1NC(=O)COc1ccccc1	15	-21	-8	3	/	i	-10	10
CC(=O)c1cccc(NC(=O)Cc2coc3cc4c(cc23)CCC4)c1	-4	/	4	-4	/	i	8	-6
O=C1c2ccccc2C(=O)N1CCCCN(C(=O)c1cc2ccccc2oc1=O)c1ccc(Cl)cc1	-9	-13	3	1	-12	i	5	-8
O=C(O)C1CCCN1S(=O)(=O)c1cccc2nsnc12 (stereo unspecified)	9	/	1	2	-24	i	-13	-3
O=C(O)c1ccccc1Nc1ccc([N+](=O)[O-])cc1	-14	/	5	2	-26	i	44	8
CC(=O)N1C2CCCCC2S[C@H]2CCCCC21 (stereo partly specified)	-12	/	-3	6	-121	i	7	-8
O=C(COc1ccccc1Cl)NCc1ccccc1	37	4	-2	-2	-18	i	-6	-11
O=C(NCc1cccs1)C1CCCN1C(=O)Nc1ccccc1 (stereo unspecified)	-2	-18	0	-1	-50	i	-13	4
COc1ccc(OC)c(-c2csc(NC(=O)Cc3ccc(F)cc3)n2)c1	-11	-21	-5	-10	-6	i	25	-12
O=S(c1ccc2ccccc2c1)c1cnns1 (stereo unspecified)	-12	-11	-10	-13	/	/	40	-9

7 entries picked at random from those above, as already listed:
SMILES	PABP polyA inh	UUG fidelity	MT1-MMP act inh	MT1-MMP act inh RFP	Env fusion inh	Rce1 inhib	CSC inhib	eIF4H inh	others
N#Cc1c(NC(=O)CSc2nnc(-c3ccncc3)n2CC2CCCO2)sc2c1CCCC2 (stereo unspecified)	6	-16	2	-4	39	i	0	3
O=C1c2ccccc2C(=O)N1CCCCN(C(=O)c1cc2ccccc2oc1=O)c1ccc(Cl)cc1	-9	-13	3	1	-12	i	5	-8
Cc1ccc(S(=O)(=O)N2CCCCC2)cc1NC(=O)c1ccc2c(c1)OCO2	27	/	3	0	0	i	-13	4
O=C(O)C1CCCN1S(=O)(=O)c1cccc2nsnc12 (stereo unspecified)	9	/	1	2	-24	i	-13	-3
NC(=O)c1ccsc1NC(=O)COc1ccccc1	15	-21	-8	3	/	i	-10	10
O=C1CCC(C(=O)N2CCCO2)CN1Cc1cccc(C(F)(F)F)c1 (stereo unspecified)	1	0	-3	-2	-6	i	/	-2
O=C(O)c1ccccc1Nc1ccc([N+](=O)[O-])cc1	-14	/	5	2	-26	i	44	8

Next part
SMILES	PABP polyA inh	UUG fidelity	MT1-MMP act inh	MT1-MMP act inh RFP	Env fusion inh	Rce1 inhib	CSC inhib	eIF4H inh	others
CC(C)c1nnc(NC(=O)C2CCCN2C(=O)Nc2ccccc2[N+](=O)[O-])s1 (stereo unspecified)	9	-12	-3	-4	-44	i	-6	-4
CCCN(CCC)CCCNC(=S)Nc1ccc2nc(N3CCN(CC)CC3)cc(C)c2c1	12	/	-1	-1	-15	i	9	12
Nc1ncnc2c1ncn2[C@@H]1O[C@H](CNC(=O)[C@@H](N)C2CCCCC2)[C@@H](O)[C@H]1O	/	-17	1	4	-1	/	/	/
O=C(Cn1cnc2c(nnn2Cc2ccccc2)c1=O)N1CCCc2ccccc21	0	-18	-5	0	-148	i	-14	2
COc1ccc(C)c2sc(=NC(=O)c3cccc(N4C(=O)CCC4=O)c3)n(C)c12	-6	/	3	-3	-7	i	-7	3
Cc1ccc(/C=N\NC(=O)C2CC(=O)N(c3ccccc3)C2)o1 (stereo unspecified)	5	28	2	1	-9	i	-5	-3
O=C(N=C1c2ccccc2CN1c1ccccc1)c1cccc([N+](=O)[O-])c1	-5	/	-2	7	0	i	-12	-2
CCn1c(CC(=O)Nc2ccccc2)nnc1SCC(=O)Nc1nncs1	10	-17	4	6	-2	i	-1	5
Cc1cccc(NC(=O)Cn2c(C)c(C#N)c3ccccc32)c1C	2	2	8	-3	-31	i	-3	-9
CCc1nc(NCCN2CCOCC2)c2oc3ccccc3c2n1	9	10	-1	1	/	i	6	-2
O=C(O)c1ccc2c(c1)C(=O)N(CCc1ccccc1)C2=O	4	-6	2	2	2	i	-1	5
O=C(O)c1nn(CC(=O)N2CCN(S(=O)(=O)c3ccc(Cl)cc3)CC2)c(=O)c2ccccc12	-4	-12	0	1	-4	i	4	-4
Cc1cc(C)n2nc(C(=O)OCC(=O)NCc3ccccc3)nc2n1	/	-5	3	3	-4	/	/	/
COC(=O)C[C@H]1C[C@@H]2c3cc(NC(=O)CN(C)C)ccc3O[C@@H]2[C@H](CO)O1	/	-5	-2	1	9	/	/	/
Cc1nc(Cl)c2c(n1)NC1=C(O2)C(=O)CCC1	14	/	-22	9	-3	i	1	79	eIF4H inh retest=-2;PABP polyA inh retest=0
Cc1ccc(NC(=O)CNc2ccccc2CN(C)C2CCCCC2)cc1	11	/	-2	1	3	i	5	-3
CCc1nc2ccc(C(=O)NCCNC(C)=O)cn2c1N(CC)CCOC	/	-6	-5	-4	14	/	/	/
CC(=O)Oc1cccc(N2C(=O)C3C4C=CC(C4)C3C2=O)c1 (stereo unspecified)	4	0	1	4	-25	i	-2	3
O=C1c2ccccc2C(=O)c2c1cccc2-n1nnc2ccccc21	7	-3	-7	-1	14	i	-9	-13
CC1NC(=O)c2cccnc2-n2c1nc1cc(F)c(F)cc1c2=O (stereo unspecified)	/	-6	-2	1	-24	/	/	/

Five entries already listed, arranged by length of the SMILES, ascending.
SMILES	PABP polyA inh	UUG fidelity	MT1-MMP act inh	MT1-MMP act inh RFP	Env fusion inh	Rce1 inhib	CSC inhib	eIF4H inh	others
O=C(O)c1ccc2c(c1)C(=O)N(CCc1ccccc1)C2=O	4	-6	2	2	2	i	-1	5
O=C1c2ccccc2C(=O)c2c1cccc2-n1nnc2ccccc21	7	-3	-7	-1	14	i	-9	-13
Cc1cc(C)n2nc(C(=O)OCC(=O)NCc3ccccc3)nc2n1	/	-5	3	3	-4	/	/	/
O=C(N=C1c2ccccc2CN1c1ccccc1)c1cccc([N+](=O)[O-])c1	-5	/	-2	7	0	i	-12	-2
COC(=O)C[C@H]1C[C@@H]2c3cc(NC(=O)CN(C)C)ccc3O[C@@H]2[C@H](CO)O1	/	-5	-2	1	9	/	/	/

New compounds follow.
SMILES	PABP polyA inh	UUG fidelity	MT1-MMP act inh	MT1-MMP act inh RFP	Env fusion inh	Rce1 inhib	CSC inhib	eIF4H inh	others
COc1cc(C2/C(=C(/O)c3ccccc3)C(=O)C(=O)N2c2ccccn2)ccc1O (stereo unspecified)	4	/	3	5	0	i	-12	-3
O=C(CC1C(=O)NCCN1Cc1ccccn1)NCCc1ccccc1F (stereo unspecified)	17	-22	-9	-2	-9	i	9	57	eIF4H inh retest=4;PABP polyA inh retest=25
Cc1cccc(C)c1NC(=O)CN(C)S(=O)(=O)c1ccc(-c2ccc(=O)[nH]n2)s1	-6	11	-2	1	5	i	7	-11
COc1cccc(COC(=O)C(Cc2ccccc2)NC(=O)c2ccco2)c1 (stereo unspecified)	/	-1	1	3	-30	/	/	/
COc1cc(C(=O)N2CCC(c3nc(-c4cccnc4)no3)CC2)cc(OC)c1OC	0	-1	-1	5	-48	i	-17	-2
O=C1c2ccccc2C(=O)N1Cc1cccnc1	10	/	2	0	-11	i	0	1
CO/N=C/C(NC(=O)c1ccc(C(F)(F)F)cc1)C(=O)OC (stereo unspecified)	-4	/	-1	5	-2	i	/	-2

Rows were taken by chance. Share with any hit: about 3%.
